miR-21 reporter = raises the signal of a miR-21 reporter. AID 2288. HeLa miR-21 FLuc reporter, luciferase, 48 h. 340,000 tested, under 10 active. Potency, µM (doses to about 38.3 µM), without a hit: at the top dose reporter change, positive = more light; active = well fitted rising curve with a large enough effect; inconclusive = small, poorly fitted or top-dose-only effect; inactive = no such curve, though single readings can be large or run the other way;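 further: % of control where 0% means no effect; miR-21 action dims this reporter so a rising signal means less miR-21 action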
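Compounds were titrated across several concentrations (up to approximately 40 uM) and incubated 48 hours with HeLa miR-21-FLuc reporter cells (miR-21 target sequence downstream of FLuc, endogenous miR-21). Readout was firefly luciferase luminescence after lytic detection reagent.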
GLA inh pH 4.5 = inhibitors of human alpha-galactosidase A at pH 4.5; activity change, negative = inhibition, % at 105 µM; 230,000 tested, under 10 active; purified enzyme, 4-MU-alpha-Gal fluorescence, pH 4.5; AID 1467; inconclusive = small, poorly fitted or top-dose-only inhibition, or a rising curve; inactive = flat fitted curve, though single readings scatter; no compound was filed as active;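 further: 0% = full activity with enzyme and -100% = basal without enzyme; dose as in the result columns while the protocol names 77 µM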
Target sequence (P06280 whole entry, looked up): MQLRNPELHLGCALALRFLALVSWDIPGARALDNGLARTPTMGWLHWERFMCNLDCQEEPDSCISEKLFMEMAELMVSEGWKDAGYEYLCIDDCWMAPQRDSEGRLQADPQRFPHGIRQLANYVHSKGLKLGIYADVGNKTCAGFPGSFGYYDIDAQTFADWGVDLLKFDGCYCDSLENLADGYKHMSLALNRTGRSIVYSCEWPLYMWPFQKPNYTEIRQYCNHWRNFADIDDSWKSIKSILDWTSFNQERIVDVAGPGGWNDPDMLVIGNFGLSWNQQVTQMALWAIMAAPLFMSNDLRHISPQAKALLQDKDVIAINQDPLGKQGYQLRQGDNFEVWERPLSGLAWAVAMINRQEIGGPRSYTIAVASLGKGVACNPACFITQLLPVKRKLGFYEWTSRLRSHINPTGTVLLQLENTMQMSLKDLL
Rango-impB inh = inhibitors of Rango-importin beta complex formation. Rango CFP/YFP FRET sensor + importin beta, 45 min. actives 0.031% (n = 340,000). Q14974. Potency, µM (series often up to 92.2 µM), without a hit: top-dose inhibition of complex formation. AID 540263; active = rising FRET ratio curve, often small or poorly fitted; inconclusive = mostly compound fluorescence or quenching in the first reads; inactive = flat curves in all reads;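 further: potency means the concentration at half of the fitted maximal effect; 0% = DMSO wells and 100% = buffer wells lacking importin beta; nearly all actives have a fitted effect of over 15% in size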
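FRET biosensor Rango (snurportin 1 IBB between N-terminal EYFP and C-terminal Cerulean), 50 nM in PBS/1 mM DTT/0.02% Tween-20/0.1% BSA, preincubated 5 min RT with compound; 0.125 microM importin beta added, 45 min RT, CFP/YFP FRET ratio read.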
Rango dissoc inh = inhibitors of RanGTP-induced Rango-importin beta complex dissociation; Potency, µM (doses to about 46.1 µM), for inactives: at the highest dose activity change, negative = inhibition; actives 0.071% (n = 340,000); Biochemical FRET Rango-importin beta, RanGTP-induced dissociation; active means falling FRET ratio curve, often poorly fitted, with flat reads before Ran was added; inconclusive means other falling curves, or compound fluorescence or quenching; inactive means flat or rising ratio curve;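 further: potency means the concentration at half of the fitted maximal effect; % of control where 0% means no effect; nearly all actives have a fitted effect of over 45% in size; -100% = wells without RanGTP and RCC1; the record marks most hits as doubtful in a second field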
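Two FRET readings bracket the reaction: one 5 min after compound meets Rango–importin beta, another 45 min after RanGTP-RCC1 (0.6 uM Ran, 0.2 uM RCC1, 2 mM GTP) is added. Only the second defines inhibition.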
* hit, by the source's call; ? = inconclusive; / = not tested or not shown; & = joins results of further samples; ! = a repeat was not active. An excerpt. The share of hits here may be higher or lower than overall.

The first three records (preview)
Below each SMILES – miR-21 reporter	GLA inh pH 4.5	Rango-impB inh	Rango dissoc inh
Cc1sc(NC(=O)CSc2nc(O)cc(=O)[nH]2)nc1-c1ccccc1
→ 3%	6	-0.3%	-21%
CC(=O)c1cccc(OC(=O)c2ccc3c(=O)n4c(nc3c2)CCC4)c1
→ /	/	-1.0%	-15%
Cc1ccc(CN2CCN(CC(=O)N/N=C/c3c[nH]c4ccccc34)CC2)cc1
→ -6%	0	-1.7%	2%

All compounds of this part (from the top)
Below each SMILES – miR-21 reporter	GLA inh pH 4.5	Rango-impB inh	Rango dissoc inh
Cc1sc(NC(=O)CSc2nc(O)cc(=O)[nH]2)nc1-c1ccccc1
→ 3%	6	-0.3%	-21%
CC(=O)c1cccc(OC(=O)c2ccc3c(=O)n4c(nc3c2)CCC4)c1
→ /	/	-1.0%	-15%
Cc1ccc(CN2CCN(CC(=O)N/N=C/c3c[nH]c4ccccc34)CC2)cc1
→ -6%	0	-1.7%	2%
O=C(Nc1ccccc1N1CCCCC1)c1ccc2nccnc2c1
→ -9%	-1	0.8%	-17%
CCc1ccc2c(CN(CC)Cc3nc4ccccc4c(=O)[nH]3)cc(=O)oc2c1
→ -2%	-9	-4.6%	-23%
COc1ccc(N2C(=O)CC(NC3CC3)C2=O)cc1 (stereo not given)
→ 1%	2	0.4%	4%
O=C(Nc1nccs1)[C@@H]1CCCN1S(=O)(=O)c1ccccc1F
→ /	/	-0.7%	-5%
CCc1cccc(C)c1NC(=O)CCCN1C(=O)CN(C)C1=O
→ /	/	0.2%	-5%
CCc1ccc(CN2CCCC(C(=O)N3CCCCC3)C2)cc1 (stereo not given)
→ 14%	/	0.3%	-21%
COc1ccc(OC)c(/C=C/C(=O)NCCc2nc3ccccc3[nH]2)c1
→ 7%	13	-2.4%	0%
COc1ccc(C2CC(c3ccccc3)=NN2c2ccccc2)c(C(=O)O)c1OC (stereo not given)
→ -1%	12	?	?
CC(=O)N1c2ccc(S(=O)(=O)N(C)Cc3ccccc3)cc2CC1C (stereo not given)
→ 13%	/	-1.1%	1%
CC1CCCCC1NC(=O)Cn1cnc2sccc2c1=O (stereo not given)
→ /	/	-0.7%	-6%
c1ccc(CSc2nnnn2-c2ccccc2)cc1
→ -12%	-3	-0.3%	4%
CCOC(=O)c1cnn(-c2ccc(NS(=O)(=O)c3ccc(Cl)cc3)cc2)c1C(F)(F)F
→ 4%	-7	1.3%	1%
CCCc1cc(=O)[nH]c(SCC(=O)Nc2ncc(S(=O)(=O)c3ccc([N+](=O)[O-])cc3)s2)n1
→ 1%	0	-3.8%	-9%
S=C(NCc1ccco1)N1CCN(Cc2ccco2)CC1
→ -1%	3	-0.8%	7%
O=C(COc1ccc(F)cc1)Nc1nnc(C2CC2)s1
→ /	/	-0.7%	-8%
Cc1cc(NCCCN(C)C)n2nc(-c3cccs3)cc2n1
→ -1%	10	5.1%	20%
Cc1ccc(-c2nn(-c3ccccc3)cc2/C=C/C(=O)Nc2cccc(S(N)(=O)=O)c2)cc1
→ -12%	10	-0.2%	18%
CC1(C)Cc2c(c(N3CCOCC3)nc3sc(-c4ccc(C(=O)O)o4)c(N)c23)CO1
→ -3%	2	?	?
Cc1cc(C)cc(C(=O)NC(CC(N)=O)c2ccc(N3CCN(c4ccccc4)CC3)c([N+](=O)[O-])c2)c1 (stereo not given)
→ 5%	/	-2.6%	?
COc1cc(NS(=O)(=O)c2ccc(NC(=S)Nc3ccccc3)cc2)nc(OC)n1
→ 2%	/	0.2%	12%
COc1ccc(CNC(=O)C(C)OC(=O)c2cccs2)cc1 (stereo not given)
→ -1%	/	-4.8%	-2%
COC(=O)c1ccc(COC(=O)CNC(=O)c2cccc(OC)c2)o1
→ /	/	-1.5%	-9%
CCC(C)[C@H](NC(=O)OC(C)(C)C)C(=O)N/N=C/c1cccc2nccnc12 (stereo not given in full)
→ -1%	7	0.2%	0%
Cc1ccc(S(=O)(=O)n2cc(CO)c3ccccc32)cc1
→ /	/	-1.2%	-9%
O=C(NCc1ccncc1)/C(=N/O)c1ccccc1
→ -5%	-1	-3.3%	1%
C=CCN=C1SC(C)C(=O)N1S(=O)(=O)c1ccccc1 (stereo not given)
→ -2%	-5	4.4%	23%
COCCSc1ccccc1C(=O)N1CCN(Cc2ccccc2)CC1
→ -1%	7	?	-25%
O=S(=O)(N/N=C\c1ccc2c(c1)OCO2)c1ccccc1
→ -13%	/	-0.8%	0%
CCC(C)N1CC23C=CC(O2)C(C(=O)OCc2ccccc2)C3C1=O (stereo not given)
→ -2%	-8	0.9%	1%
CCOC(=O)N1CCN(C(=O)c2ccc(C)c(S(=O)(=O)Nc3ccccc3)c2)CC1
→ -5%	7	-3.8%	-2%
Cc1ccc(CN(c2ccc(C(=O)N3CCc4ccccc4C3)cc2)S(C)(=O)=O)cc1
→ 20%	1	4.4%	1%
Cc1ccc(NS(=O)(=O)c2ccc(CCC(=O)O)cc2)cc1
→ -7%	3	-0.8%	11%
CCCC(=O)NC(=S)Nc1sc2c(c1C(N)=O)CCC2
→ -41%	3	-3.2%	1%
CC(C)n1c(=N)c(C(=O)NCCc2ccccc2)cc2c(=O)n3ccccc3nc21
→ -2%	9	?	?
O=C1CCN(S(=O)(=O)c2ccccc2)CCN1CCOCc1ccc(Cl)cc1
→ 0%	2	-0.2%	7%
CCc1nnc(NC(=O)CCN2C(=O)c3ccccc3C2=O)s1
→ -6%	-2	-5.5%	13%
CC(C(=O)N1CCc2ccccc21)N1CCN(S(=O)(=O)c2cccc(C(F)(F)F)c2)CC1 (stereo not given)
→ /	/	-4.7%	15%
O=c1[nH]cnc2ncc(-c3ccc(O)cc3)nc12
→ /	/	-0.4%	-4%
CC(=O)N/C(=C/c1ccccc1)C(=O)N1CCCCC1
→ -8%	-6	-1.4%	0%
COc1ccc(/C=N/Nc2ccccc2C(=O)O)cc1Cn1cc([N+](=O)[O-])cn1
→ -37%	-8	0.7%	-12%
O=C(/C=C/c1ccc2c(c1)OCO2)N1CCN(c2ccccc2F)CC1
→ -8%	4	-0.6%	22%
COc1ccc(S(=O)(=O)NCCC(=O)NC2CCCCC2C)cc1[N+](=O)[O-] (stereo not given)
→ /	/	-1.2%	-19%
Cc1cc(C)n2cc(CSc3nnc(SCc4cn5c(C)cc(C)nc5n4)s3)nc2n1
→ -5%	-6	/	/
C=CCC1c2cccc(C(=O)OC)c2C(=O)N1c1ccccc1 (stereo not given)
→ 2%	0	0.2%	2%
Cc1cccc(NC(=O)CNC(=O)CCNC(=O)c2ccc(C(C)(C)C)cc2)c1C
→ /	/	-0.6%	-3%
NC(=NCCCCCCN=C(N)/N=C(\N)Nc1ccc(Cl)cc1)/N=C(\N)Nc1ccc(Cl)cc1
→ 26%	-3&3	52µM*!	?
Cc1nc(CCNC(=O)CC2C(=O)NCCN2CC(C)C)nc2c1CCC2 (stereo not given)
→ -1%	/	1.1%	0%
COc1ccc(CNC(=O)C2CC(c3ccccc3C(F)(F)F)=NO2)cc1 (stereo not given)
→ -2%	5	-2.9%	-5%
Oc1c(Br)cccc1/C=N/Nc1c(F)c(F)c(F)c(F)c1F
→ 0%	-2	1.1%	1%
CCOC(=O)CNC(=O)C1c2ccccc2Oc2ccccc21
→ 3%	/	-7.2%	-6%
CC(C)CCn1c(N2CCN(c3cccc(Cl)c3)CC2)nc2c1c(=O)[nH]c(=O)n2C
→ -9%	2	3.4%	0%
COc1ccccc1N1CCN(C2CCCN(Cc3c(F)cccc3F)C2)CC1 (stereo not given)
→ 1%	/	2.0%	0%
COc1cc(C2CC(c3ccccc3)=NN2c2ccccc2)ccc1OCC(=O)O (stereo not given)
→ -11%	/	?	?
COc1ccc(C(=O)N/C(=C\c2ccccc2)C(=O)NC(CCSC)C(=O)O)cc1 (stereo not given)
→ 1%	-8	0.2%	-14%
CC(=O)C(N=Nc1ccccc1)(Sc1nnc(-c2ccccc2)n1-c1ccccc1)C(=O)Nc1ccccc1 (stereo not given)
→ -7%	-29	-2.0%	6%
OC(COc1ccc2cc(Br)ccc2c1)Cn1ccnc1 (stereo not given)
→ 0%	/	0.8%	18%
O=C(Nc1c(Br)cc2c(c1Br)Cc1cc([N+](=O)[O-])ccc1-2)C(Cl)Cl
→ /	/	-0.6%	-11%

Next part
Below each SMILES – miR-21 reporter	GLA inh pH 4.5	Rango-impB inh	Rango dissoc inh
O=C1C(O)=C(O)C(=O)c2ccccc21
→ /	/	8.8%	10%
Cc1ccc(-c2cc(C(=O)Nc3ccc(S(=O)(=O)N4CC(C)OC(C)C4)cc3)[nH]n2)c(O)c1 (stereo not given)
→ 8%	-20	-3.2%	1%
CCN(CC(=O)Nc1c(F)cccc1F)C(=O)CNC(=O)c1ccc2ccccc2c1
→ /	/	1.0%	3%
O=C(CS(=O)(=O)Cc1ccccc1)NCc1ccccc1Cl
→ -17%	/	1.2%	27%
NC(=O)NC(=O)C(Nc1ccc(N2CCCCC2)cc1)c1ccccc1 (stereo not given)
→ -65%	/	?	?
CNC(=O)OCc1cccc(COC(=O)NC)n1
→ -1%	7	-0.2%	-11%
COc1ccccc1NC(=O)c1cc(S(=O)(=O)N2CCc3ccccc32)ccc1F
→ -4%&-6%	/	-1.8%	-1%
Cc1sc2nc(SCC(=O)NCc3cccs3)[nH]c(=O)c2c1C
→ -15%	2	-2.1%	0%
CCOC(=O)Nc1ccc(S(=O)(=O)Nc2cc(C)on2)cc1
→ 0%	-3	7.9%	0%
CC(C)Cc1nn2c(N)c(/C=C3\C=Nc4ccccc43)c(=O)nc2s1
→ -4%	-3	?	?
O=C(COC(=O)c1ccc(Cl)c(S(=O)(=O)N2CCCC2)c1)NC1CCCC1
→ -2%	-6	1.4%	8%
COc1cccc(N2CCN(c3nc(-c4ccccc4C)cc(=O)[nH]3)CC2)c1
→ 17%	/	-3.2%	7%
Cc1onc(-c2ccccc2)c1NC(=O)N(Cc1ccccc1)C(C)C
→ -1%	-1	-3.6%	29%
Fc1cccc(CN2CCC(Cc3ccccc3)CC2)c1
→ 6%	/	-1.0%	-4%
COc1cccc(C2c3cc4c(cc3OC(N3CCOCC3)C2C)OCO4)c1O (stereo not given)
→ /	/	1.2%	0%
COc1ccc(CCN2C(=O)CSC2=Nc2ccc(C(C)C)cc2)cc1OC
→ ?	4	-2.4%	-8%
Cc1nnc(N2C(=O)C(O)=C(C(=O)c3ccco3)C2c2ccc(C(C)(C)C)cc2)s1 (stereo not given)
→ -34%	4	?	26µM*
Cc1ccc(S(=O)(=O)NNC(=O)C2COc3ccccc3O2)cc1 (stereo not given)
→ -7%	-5	-2.4%	10%
Brc1ccc(-c2cn3c(n2)SCC3)cc1
→ -36%	-1	0.8%	1%
O=C(Cn1c(=O)oc2ccccc21)Nc1ccccc1N1CCOCC1
→ -1%	3	-2.1%	-15%
COCCn1c(C)cc(C(=O)COC(=O)c2ccc(Br)o2)c1C
→ -65%	1	2.1%	19%
Cn1nc(C(F)(F)F)c(-c2ccccc2)c1N
→ -2%	1	3.0%	-4%
COc1ccccc1CCC(=O)OCC(=O)Nc1ccc(S(N)(=O)=O)cc1
→ 0%	-18	1.2%	0%
CC(CC(=O)OCC(=O)NC1CCS(=O)(=O)C1)c1ccccc1 (stereo not given)
→ /	/	1.1%	21%
Cc1ccc(S(=O)(=O)Cc2ccc(C(=O)N3CCC(C)CC3)cc2)cc1
→ 1%	/	2.7%	-11%
Cc1cccc(/N=C/c2c(O)[nH]c3ccccc23)n1
→ -24%	-3	?	-20%
CCOc1ccccc1NC(=O)Nc1cc(OC)ccc1OC
→ -7%	1	-0.3%	-8%
COc1ccccc1NC(=O)C1C2C=CC(O2)C1C(=O)O (stereo not given)
→ -1%	13	/	/
CCN1CCC2(CC1)N=C(c1ccc(F)cc1)C(=S)N2C(=O)c1ccc(C(C)(C)C)cc1
→ -28%	-1	0.1%	7%
CCOc1ccc(C)cc1-n1nc2ccccc2n1
→ -22%	3	1.3%	3%
Fc1ccc(C2=CC(c3ccc(Br)o3)n3ncnc3N2)cc1 (stereo not given)
→ 6%	12	?	?
